Vaccinia stage – Vaccinia orthopox stage-specific inhibition. activity change (mCherry), % (test concentration not listed). 0.01% of 89,000 active. Vaccinia-infected cells, mCherry/Venus stage reporter fluorescence; active compounds read low; some inactives read as strong as hits;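 active means mCherry past -33% and 40 or more points under the early reporter, replicates agreeing; inconclusive means past -33% without that gap or agreement; tested in A549 cells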;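 further: scaled between vehicle wells and reference inhibitor wells; 23 nL library stock went into each well; one replicate is shown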
Vaccinia stage Venus – second read-out of Vaccinia stage, no call of its own (marks repeat the call); activity change (Venus), %; measured here: Venus reporter, other viral stage;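 negative = less Venus signal; first of two replicates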
The depositor's hits bear a star. The list is partial; the hit share may differ from the screen's.

How did C[C@H]1CCCCO[C@@H](CN(C)C(=O)NC2CCCCC2)[C@@H](C)CN([C@@H](C)CO)C(=O)c2cc(N(C)C)ccc2O1 do in these assays?
Vaccinia stage: -12; Vaccinia stage Venus: 4

Results for CC(C)C#Cc1ccc2c(c1)O[C@@H](CN(C)Cc1cncnc1)[C@H](C)CN([C@@H](C)CO)S2(=O)=O ?
Vaccinia stage: -28; Vaccinia stage Venus: -31

How did Cc1noc(C)c1NC(=O)Nc1ccc2c(c1)CC(=O)N([C@H](C)CO)C[C@@H](C)[C@@H](CN(C)C(=O)Nc1ccc(F)cc1)O2 do in these assays?
Vaccinia stage: 16; Vaccinia stage Venus: 9

How did COc1ccc2c3c(n(C)c2c1)[C@H](CO)N(C(=O)c1cnccn1)CC31CCN(C(C)=O)CC1 do in these assays?
Vaccinia stage: 5; Vaccinia stage Venus: -2

What do the screens show for `C[C@H]1CN([C@@H](C)CO)C(=O)Cc2cc(NC(=O)Cc3cn(C)c4ccccc34)ccc2O[C@@H]1CN(C)CC1CC1`?
Vaccinia stage: -9; Vaccinia stage Venus: -7

Results for C[C@@H]1CN([C@@H](C)CO)C(=O)c2cc(NS(=O)(=O)c3ccccc3)ccc2O[C@@H]1CN(C)C(=O)Nc1ccccc1 ?
Vaccinia stage: 18; Vaccinia stage Venus: 13

Results for CC(C)CC#Cc1ccc2c(c1)O[C@@H](CN(C)C(=O)c1cccnc1)[C@@H](C)CN([C@H](C)CO)S2(=O)=O ?
Vaccinia stage: -12; Vaccinia stage Venus: -13

Results for C[C@@H]1CN([C@@H](C)CO)C(=O)c2cc(NC(=O)CCCN(C)C)ccc2O[C@@H](C)CCCCO[C@H]1CN(C)Cc1ccc(C(F)(F)F)cc1 ?
Vaccinia stage: inconclusive

Results for C[C@H](CO)N1C[C@H](C)[C@H](CN(C)S(=O)(=O)c2ccc(F)cc2)Oc2ccc(NS(=O)(=O)c3ccc(Cl)cc3)cc2C1=O ?
Vaccinia stage: -15; Vaccinia stage Venus: -2

What do the screens show for `Cc1noc(C)c1S(=O)(=O)Nc1ccc2c(c1)C(=O)N([C@@H](C)CO)C[C@@H](C)[C@H](CN(C)C(=O)C1CCCCC1)OCCCC[C@@H](C)O2`?
Vaccinia stage: -15; Vaccinia stage Venus: -13

What do the screens show for `C[C@@H]1CN([C@@H](C)CO)C(=O)c2cc(NC(=O)c3ccncc3)ccc2O[C@@H](C)CCCCO[C@H]1CN(C)Cc1ccc(C(=O)O)cc1`?
Vaccinia stage: 32; Vaccinia stage Venus: 8

How did COc1ccc2c3c([nH]c2c1)[C@H](CO)N(C(=O)c1ccncc1)CC31CCN(C(=O)CC2CC2)CC1 do in these assays?
Vaccinia stage: 30; Vaccinia stage Venus: 26

What do the screens show for `CO[C@@H]1CN(C)C(=O)c2ccc(NC(=O)c3cnccn3)cc2OC[C@@H](C)N(C(C)=O)C[C@H]1C`?
Vaccinia stage: 7; Vaccinia stage Venus: 4

What do the screens show for `CN1CCN(C(=O)[C@@H]2[C@@H](CO)[C@@H]3Cn4c(ccc(-c5cncnc5)c4=O)[C@@H]3N2CC2CC2)CC1`?
Vaccinia stage: -5; Vaccinia stage Venus: 3

What do the screens show for `CNC(=O)C[C@@H]1CC[C@H]2[C@@H](COc3ccc(NC(=O)c4ccccc4OC)cc3C(=O)N2C)O1`?
Vaccinia stage: 1; Vaccinia stage Venus: 2

How did COCC(=O)N1CC[C@@H]2[C@H](CO)Nc3ccc(-c4cccc(C#N)c4)cc3[C@@H]21 do in these assays?
Vaccinia stage: inconclusive

Results for COCC#Cc1cnc2c(c1)C(=O)N([C@H](C)CO)C[C@@H](C)[C@@H](CN(C)C(=O)Cc1ccccc1)O2 ?
Vaccinia stage: 40; Vaccinia stage Venus: 15

Results for Cc1ccc(S(=O)(=O)Nc2ccc3c(c2)C(=O)N([C@@H](C)CO)C[C@H](C)[C@@H](CN(C)C(=O)NC(C)C)OCCCC[C@@H](C)O3)cc1 ?
Vaccinia stage: -12; Vaccinia stage Venus: -7

How did C[C@H](CO)N1C[C@H](C)[C@@H](CN(C)CC2CCCC2)Oc2ncc(Br)cc2C1=O do in these assays?
Vaccinia stage: 15; Vaccinia stage Venus: 10

What do the screens show for `C/C=C/c1ccc2c(c1)O[C@H](CN(C)C(=O)c1ccccc1)[C@@H](C)CN([C@H](C)CO)S2(=O)=O`?
Vaccinia stage: 1; Vaccinia stage Venus: 5

Results for C[C@H]1CCCCO[C@H](CN(C)Cc2ccccc2)[C@@H](C)CN([C@@H](C)CO)C(=O)c2cc(NS(C)(=O)=O)ccc2O1 ?
Vaccinia stage: -5; Vaccinia stage Venus: -7

How did C[C@@H]1CCCCO[C@@H](CN(C)C(=O)NC2CCCCC2)[C@@H](C)CN([C@@H](C)CO)C(=O)c2cc(NC(=O)NC3CCCCC3)ccc2O1 do in these assays?
Vaccinia stage: -3; Vaccinia stage Venus: -1

How did C[C@@H]1CN([C@H](C)CO)C(=O)Cc2cc(NS(=O)(=O)c3ccc(Cl)cc3)ccc2O[C@@H]1CN(C)Cc1ccccc1 do in these assays?
Vaccinia stage: -27; Vaccinia stage Venus: -20

Results for C/C=C/c1ccc2c(c1)O[C@H](CN(C)C(=O)CC)[C@H](C)CN([C@H](C)CO)S2(=O)=O ?
Vaccinia stage: 15; Vaccinia stage Venus: 12

How did COc1ccc(CN2C[C@@H](C)[C@H](OC)CN(C)C(=O)c3cc(NC(C)=O)ccc3OC[C@@H]2C)cc1 do in these assays?
Vaccinia stage: -1; Vaccinia stage Venus: -1

How did C[C@@H]1CN([C@H](C)CO)C(=O)c2cc(NC(=O)Nc3ccc(F)cc3)ccc2O[C@@H](C)CCCCO[C@H]1CN(C)C(=O)Nc1ccccc1 do in these assays?
Vaccinia stage: 8; Vaccinia stage Venus: 5

How did COC(=O)[C@H]1[C@H](CO)[C@H]2Cn3c(ccc(-c4ccccc4F)c3=O)[C@H]2N1CC1CCCC1 do in these assays?
Vaccinia stage: -20; Vaccinia stage Venus: -8

Results for CO[C@@H]1CN(C)C(=O)c2cc(NS(=O)(=O)c3cn(C)cn3)ccc2OC[C@@H](C)N(Cc2cccc(C(F)(F)F)c2)C[C@H]1C ?
Vaccinia stage: -21; Vaccinia stage Venus: -12

What do the screens show for `COc1ccc(S(=O)(=O)Nc2ccc3c(c2)C(=O)N([C@@H](C)CO)C[C@H](C)[C@H](CN(C)C(=O)CCC(F)(F)F)OCCCC[C@@H](C)O3)cc1`?
Vaccinia stage: -7; Vaccinia stage Venus: -6

Results for C[C@H]1CN([C@@H](C)CO)C(=O)c2cc(NC(=O)Nc3ccc4c(c3)OCO4)ccc2O[C@@H]1CN(C)S(=O)(=O)c1ccccc1 ?
Vaccinia stage: 13; Vaccinia stage Venus: 14

Results for C[C@@H]1CN([C@@H](C)CO)C(=O)c2cc(NC(=O)Nc3cccc4ccccc34)ccc2O[C@@H](C)CCCCO[C@@H]1CN(C)S(=O)(=O)c1ccccc1 ?
Vaccinia stage: 33; Vaccinia stage Venus: 13

How did CO[C@H](CN(C)C(=O)c1cnccn1)[C@H](C)CN([C@@H](C)CO)S(=O)(=O)c1ccccc1 do in these assays?
Vaccinia stage: 13; Vaccinia stage Venus: 12

What do the screens show for `CN(C)CC#Cc1ccc([C@H]2[C@H]3CN(C(=O)C4CC4)CCCCN3[C@H]2CO)cc1`?
Vaccinia stage: 16; Vaccinia stage Venus: 8

How did C[C@H]1CN([C@@H](C)CO)C(=O)c2cc(C#CC3CC3)cnc2O[C@@H]1CN(C)C(=O)c1ccccc1 do in these assays?
Vaccinia stage: 25; Vaccinia stage Venus: 14

How did C[C@@H]1CN([C@@H](C)CO)S(=O)(=O)c2ccc(C#CCN(C)C)cc2O[C@@H]1CN(C)Cc1cccnc1 do in these assays?
Vaccinia stage: 12; Vaccinia stage Venus: 4

Results for C/C=C/c1ccc([C@H]2[C@@H](CO)N(C(=O)COC)[C@@H]2CNC(=O)C2CC2)cc1 ?
Vaccinia stage: -1; Vaccinia stage Venus: -2

What do the screens show for `C[C@H]1CN([C@@H](C)CO)C(=O)Cc2cc(NS(=O)(=O)c3ccc(F)cc3)ccc2O[C@H]1CN(C)S(=O)(=O)c1ccc(F)cc1`?
Vaccinia stage: -3; Vaccinia stage Venus: -5

Results for COC(=O)C[C@H]1CC[C@@H]2[C@@H](COc3ccc(NC(=O)c4cscn4)cc3C(=O)N2C)O1 ?
Vaccinia stage: 0; Vaccinia stage Venus: 10

How did CNC[C@H]1Oc2ccc(NC(=O)Cc3cn(C)c4ccccc34)cc2C(=O)N([C@H](C)CO)C[C@H]1C do in these assays?
Vaccinia stage: 29; Vaccinia stage Venus: 23

What do the screens show for `Cc1ccc(-c2ccc([C@H]3[C@H]4CN(C(=O)Cc5ccccn5)CC(=O)N4[C@H]3CO)cc2)cc1`?
Vaccinia stage: -28; Vaccinia stage Venus: -15

Results for CN(C)CC(=O)Nc1ccc2c(c1)[C@@H]1C[C@H](CC(=O)N3CCCCC3)O[C@@H](CO)[C@@H]1O2 ?
Vaccinia stage: 2; Vaccinia stage Venus: 0

What do the screens show for `O=C(CCN1CCCCC1)N[C@H]1CC[C@@H](CCNC(=O)c2cc(Cl)cc(Cl)c2)O[C@H]1CO`?
Vaccinia stage: -11; Vaccinia stage Venus: -7

How did COc1ccc(NC(=O)N2CC(=O)N3[C@H](CO)[C@H](c4ccc(Br)cc4)[C@H]3C2)cc1 do in these assays?
Vaccinia stage: -9; Vaccinia stage Venus: -13

How did COc1ccc(-c2cn(CC[C@H]3CC[C@H](NS(=O)(=O)c4ccccc4C)[C@@H](CO)O3)nn2)cc1 do in these assays?
Vaccinia stage: 2; Vaccinia stage Venus: 3

What do the screens show for `C[C@@H]1CN([C@@H](C)CO)C(=O)c2cccc(NS(C)(=O)=O)c2O[C@@H]1CN(C)S(=O)(=O)c1cn(C)cn1`?
Vaccinia stage: 1; Vaccinia stage Venus: -4

How did COc1ccc(S(=O)(=O)Nc2ccc3c(c2)CC(=O)N([C@H](C)CO)C[C@H](C)[C@H](CN(C)C(=O)Nc2ccccc2)O3)cc1 do in these assays?
Vaccinia stage: 14; Vaccinia stage Venus: 11

How did O=C(NCC[C@H]1CC[C@H](NC(=O)c2cnccn2)[C@@H](CO)O1)Nc1ccc(F)cc1 do in these assays?
Vaccinia stage: -6; Vaccinia stage Venus: 2

How did C/C=C/c1ccc([C@@H]2[C@@H](CO)N(C(=O)C3CC3)[C@H]2CN(C)C(=O)CC)cc1 do in these assays?
Vaccinia stage: -3; Vaccinia stage Venus: -9

Results for COCC(=O)N1C[C@@H](C)[C@H](OC)CN(C)C(=O)c2ccc(NC(=O)Nc3ccccc3)cc2OC[C@H]1C ?
Vaccinia stage: 2; Vaccinia stage Venus: 3

Results for CC(C)NC(=O)Nc1ccc2c(c1)C(=O)N([C@H](C)CO)C[C@@H](C)[C@@H](CN(C)C(=O)Nc1ccc(C(F)(F)F)cc1)OCCCC[C@@H](C)O2 ?
Vaccinia stage: -1; Vaccinia stage Venus: -3

In the list so far, these contain bromine.
How did C[C@H](CO)N1C[C@H](C)[C@@H](CN(C)CC2CCCC2)Oc2ncc(Br)cc2C1=O do in these assays?
Vaccinia stage: 15; Vaccinia stage Venus: 10

How did COc1ccc(NC(=O)N2CC(=O)N3[C@H](CO)[C@H](c4ccc(Br)cc4)[C@H]3C2)cc1 do in these assays?
Vaccinia stage: -9; Vaccinia stage Venus: -13

Other results
What do the screens show for `C[C@@H]1CN([C@H](C)CO)C(=O)c2cc(NC(=O)Cc3ccccc3)ccc2O[C@H]1CN(C)S(=O)(=O)c1ccc(F)cc1`?
Vaccinia stage: -2; Vaccinia stage Venus: -1

What do the screens show for `C[C@H]1CN([C@@H](C)CO)C(=O)c2cc(NS(=O)(=O)c3cccs3)ccc2O[C@H]1CN(C)C(=O)Nc1ccccc1`?
Vaccinia stage: 19; Vaccinia stage Venus: 9

What do the screens show for `C[C@H]1CN([C@@H](C)CO)C(=O)c2cccc(NS(=O)(=O)c3ccc(F)cc3)c2O[C@H]1CN(C)C(=O)Nc1cccc2ccccc12`?
Vaccinia stage: 7; Vaccinia stage Venus: 4

Results for O=C(C1CCC1)N1CC2(C1)[C@H](c1ccccc1)[C@@H](CO)N2CCC(F)(F)F ?
Vaccinia stage: 21; Vaccinia stage Venus: 11

How did C[C@H]1CN([C@@H](C)CO)C(=O)Cc2cc(NC(=O)CCC(F)(F)F)ccc2O[C@H]1CN(C)S(=O)(=O)c1ccccc1 do in these assays?
Vaccinia stage: -8; Vaccinia stage Venus: -2

How did C[C@H](CO)N1C[C@H](C)[C@@H](CN(C)C(=O)Nc2ccc(C(F)(F)F)cc2)Oc2ccc(NS(=O)(=O)c3ccccc3)cc2C1=O do in these assays?
Vaccinia stage: 23; Vaccinia stage Venus: 13

What do the screens show for `CO[C@H]1CN(C)C(=O)c2cc(NC(=O)C3CC3)ccc2OC[C@H](C)NC[C@H]1C`?
Vaccinia stage: 12; Vaccinia stage Venus: 9

Among those listed so far, three contain a Cl atom.
Results for C[C@H](CO)N1C[C@H](C)[C@H](CN(C)S(=O)(=O)c2ccc(F)cc2)Oc2ccc(NS(=O)(=O)c3ccc(Cl)cc3)cc2C1=O ?
Vaccinia stage: -15; Vaccinia stage Venus: -2

How did C[C@@H]1CN([C@H](C)CO)C(=O)Cc2cc(NS(=O)(=O)c3ccc(Cl)cc3)ccc2O[C@@H]1CN(C)Cc1ccccc1 do in these assays?
Vaccinia stage: -27; Vaccinia stage Venus: -20

What do the screens show for `O=C(CCN1CCCCC1)N[C@H]1CC[C@@H](CCNC(=O)c2cc(Cl)cc(Cl)c2)O[C@H]1CO`?
Vaccinia stage: -11; Vaccinia stage Venus: -7

From PubChem
